Screening results deposited in PubChem by several laboratories.
CSC inhib: cancer stem cell viability inhibitors, primary screen, luminescence; cancer stem cell-like cells viability; inhibition, % at 7.5 µM; hit rate 1.1% among 300,000;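 active means mean at 75% or more and at least half the replicates too; inconclusive means mean and replicates disagree; tested in HMLE shEcad cells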;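 further: 0% = median of negative and 100% = median of positive control wells; the first replicate is given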
PABP FP inh: PABP poly(A) RNA binding inhibitors, primary screen, biochemical, fluorescence polarization, uHTS. hit rate 1% among 290,000. inhibition, % at 35 µM. AID 2014, 2009. Polyadenylate-binding protein 1 (Homo sapiens), P11940;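 active means 50% or more with normal probe brightness, or confirmed in later tests; inconclusive means above 50% with abnormal brightness, or retests that disagree; inactive means below 50% or failed in later tests; about a fifth of its hits are not listed in these tables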;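 further: calls also rest on retests at 20 µM and on dose response follow-up; controls were probe without protein and protein plus probe with vehicle; some compounds called inactive have numbers as strong as hits; many hits fall short of the cut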
UUG fidelity: modulators of yeast start codon fidelity, primary screen, whole organism, S. cerevisiae, single point, plate reader; AID 602363, 2012; S. cerevisiae UUG-firefly luciferase reporter, luminescence/redox ratio; hit rate 0.13% among 350,000; activity score, % at 18.7 µM;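 active means replicate mean at a twofold rise or more, about +100% in these data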;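 further: firefly luciferase made from a UUG start codon reports start codon fidelity; reporter light over untreated wells divided by growth signal over untreated wells; some hits fall short of that in this replicate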
HIV Env fusion: inhibitors of HIV-1 Env-driven cell-cell fusion, primary screen, HeLa-JRFL effector, CEM21 target cells, luciferase; hit rate 1.1% among 360,000; inhibition, % at 12.3 µM;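 active means mean replicate inhibition score of at least 50 and every replicate individually at or above 50; inconclusive means only one of the two criteria met; inactive means mean below 50 and not all replicates reaching 50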;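 further: 0% = plate neutral controls and 100% = maraviroc near 300 nM; one replicate is shown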
eIF4H FP inh: human eIF4H binding inhibitors, primary screen, translation initiation inhibitor project, biochemical, uHTS, fluorescence polarization | hit rate 0.94% among 290,000 | inhibition, % at 35 µM | Eukaryotic translation initiation factor 4H (Homo sapiens), Q15056 | AID 2012, 2009 | eIF4H fluorescence polarization binding assay;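 active means 50% or more with normal probe brightness, or confirmed in later tests; inconclusive means above 50% with abnormal brightness, or retests that disagree; inactive means below 50% or failed in later tests; about a fifth of its hits are not listed in these tables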;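 further: calls also rest on retests at 20 µM and on dose response follow-up; 0% = protein and probe with vehicle and 100% = probe without protein; strong numbers were not always called active; many hits fall short of the cut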
MT1-MMP act inh: blockers of MT1-MMP proenzyme processing, primary screen, HT1080 RFP-PRO-GFP cells, GFP/RFP fluorescence; GFP/RFP ratio fluorescence, overnight; percent of plate control window, DMSO zero; GFP/RFP ratio change, % at 20 µM; hit rate 0.061% among 360,000; Matrix metalloproteinase-14 (Homo sapiens), P50281; AID 651647, 2012;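 active means GFP/RFP ratio change of at least 30% with cell ATP level not reduced by more than half and red fluorescence within 50% of control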; further: strong numbers were not always called active
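Test system: HT1080 cells expressing an RFP-PRO-GFP fluorescent reporter construct / Compound dosing: single-point 20 µM compound, 1% DMSO / Schedule: cells overnight before dosing, compound overnight, 37 °C, 5% CO2 / Evaluation: GFP/RFP fluorescence ratio / Control set: DMSO and RFP-L50D-GFP cell wells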
Rce1 inh: yeast Rce1p protease inhibitors, primary screen, biochemical, fluorescence, cell-free homogeneous; CAAX prenyl protease 2 (Saccharomyces cerevisiae (strain ATCC 204508 / S288c)), Q03530; yeast membranes, quenched prenylated peptide cleavage fluorescence; calls only; hit rate 0.27% among 290,000;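 active means fall in fluorescence gain of 50% or more versus controls, with final raw signal at or below 3038400; inconclusive means same 50% fall but final raw signal above 3038400; inactive means fall in fluorescence gain under 50%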;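 further: plate controls were neutral control wells for no effect and wells lacking membranes for full effect; tested at 10 µM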
Target sequence (Q03530 whole entry, looked up): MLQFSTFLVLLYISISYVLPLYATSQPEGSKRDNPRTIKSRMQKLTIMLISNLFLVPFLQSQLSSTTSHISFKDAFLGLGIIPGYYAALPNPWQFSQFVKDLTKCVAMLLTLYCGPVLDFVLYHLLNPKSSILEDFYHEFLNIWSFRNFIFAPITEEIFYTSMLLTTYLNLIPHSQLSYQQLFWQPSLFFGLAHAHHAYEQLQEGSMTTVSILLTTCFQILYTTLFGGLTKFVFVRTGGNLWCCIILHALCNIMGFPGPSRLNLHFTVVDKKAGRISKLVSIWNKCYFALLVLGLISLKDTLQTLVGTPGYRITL
eIF4H FP inh retest: second read-out of eIF4H FP inh, no call of its own (marks repeat the call); inhibition, %; compound at 20 µM; confirmation average;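 mean of two retest wells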
PABP FP inh retest: also measured in PABP FP inh; calls as there; inhibition, %; compound at 20 µM; confirmation repeats;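 mean of two retest wells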
MT1-MMP act inh RFP: recorded beside MT1-MMP act inh, whose call it bears; RFP signal change, %; measured here: RFP expression control read;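 0 = vehicle wells; hits needed this value within 50% of zero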
Starred values were filed as active, the others as inactive; i = inactive; ? = inconclusive; . = no result given; & = joins results of further samples; [ ] = another dose, or the depositor's remark.

SMILES	CSC inhib	PABP FP inh	UUG fidelity	HIV Env fusion	eIF4H FP inh	MT1-MMP act inh	MT1-MMP act inh RFP	Rce1 inh	others
O=C(COC(=O)/C=C/c1ccc(Cl)cc1)NCc1cccs1	.	.	7	25	.	3	5	.
COc1ccc(C=O)cc1Cn1ccnc1C	2	-10	.	-9	-10	7	8	i
COc1ccc2nc(NC(=O)C3CC(=O)N(c4ccccc4)C3)sc2c1 (stereo unspecified)	-4	8	-5	22	-9	-9	-9	i
O=C(O)Cn1ccc2cc(S(=O)(=O)N3CCCCCC3)ccc21	-11	-4	-14	8	-3	2	4	i
O=S(=O)(NCCCCCNS(=O)(=O)c1ccc(F)cc1)c1ccc(F)cc1	.	2	8	.	-4	19	2	i
O=C(c1cccc2c1C(=O)N(Cc1cccnc1)C2)N1CCN(c2ccccc2)CC1	2	15	-13	.	8	0	6	i
CC(C(=O)Nc1ccc(F)c(F)c1)N1CCN(C)CC1 (stereo unspecified)	-11	-2	-11	-4	-2	1	1	i
FC(F)(F)c1cccc(-c2noc(CN3CCOCC3)n2)c1	-17	-4	0	-20	-2	4	0	i
COCCOC(=O)N1CCCCC1c1cc(C(=O)NCc2ccc(Cl)c(Cl)c2)no1 (stereo unspecified)	.	.	-3	16	.	0	-7	.
CC1CCN(CC(CS(=O)(=O)c2ccc([N+](=O)[O-])cc2)N2CCC(C)CC2)CC1 (stereo unspecified)	?	-2	7	-3	-3	-1	3	i
O=S(=O)(c1ccccc1)N1CCN(S(=O)(=O)N2CCCCCC2)CC1	-5	-8	-13	5	-13	-2	2	i
Cn1c(=O)c2c(nc(OCCc3ccccc3)n2C)n(C)c1=O	-4	2	-13	-1	2	-5	0	i
O=C(/C=C/NNC(=O)c1ccc(Br)cc1)c1ccccc1	5	0	-16	.	-8	-2	3	i
Cc1ccc(N2CC(C(=O)Nc3cccnc3)CC2=O)cc1Cl (stereo unspecified)	.	4	-2	2	0	0	0	i
O=C(NCC(=O)N1CCC(N2CCCCC2)CC1)C1CCCCC1	-1	-2	-13	-22	4	0	3	i
CCN(C(=O)c1cc2c(=O)n3ccccc3nc2n1CCCOC)C1CCCCC1	8	6	6	30	-1	0	4	i
Cc1ccc(S(=O)(=O)N2CCCOC2CNC(=O)C(=O)NCCN2CCOCC2)cc1 (stereo unspecified)	3	-6	-4	6	-3	1	5	i
O=C(Oc1c(CN2CCOCC2)cc(Cl)c2cccnc12)c1ccccc1F	22	68*	.	2	?	5	10	i	PABP FP inh retest=103*
CCN1C(=NCCc2ccccn2)N[C@@H](c2cccc(C(F)(F)F)c2)C(C(=O)OC)=C1C	-5	.	-16	-9	.	-3	0	.
C[C@H]1CN([C@@H](C)CO)S(=O)(=O)c2ccc(Br)cc2O[C@H]1CN(C)C(=O)CN(C)C	.	.	-2&6&7	6[16.7 µM]	.	8	5	.
Cc1nc(N/N=C/c2ccc(O)cc2)c2cnn(-c3ccccc3)c2n1	-7	-8	.	6	-10	-1	-10	i
Cc1ccc(Cn2cnc3c(cnn3-c3ccc(F)cc3)c2=O)cc1	-9	-15	.	5	3	1	-15	i
Cc1nnc(SCC(=O)Nc2ccccc2C(=O)NC2CC2)s1	.	-14	.	-8	7	-1	-3	i
CCCCNS(=O)(=O)c1ccc2nc(SCC(=O)c3ccccc3OC)[nH]c2c1	-3	2	-19	.	-6	0	-17	i
CCc1ccc(NC(=O)c2ccccc2NC(=O)C2CCCO2)cc1 (stereo unspecified)	-8	-2	-8	-57	4	-5	-1	i

More records:
SMILES	CSC inhib	PABP FP inh	UUG fidelity	HIV Env fusion	eIF4H FP inh	MT1-MMP act inh	MT1-MMP act inh RFP	Rce1 inh	others
O=C(O)CC1(O)C(=O)N(Cc2ccccc2)c2ccccc21 (stereo unspecified)	18	-4	-6	0	-1	-4	-8	i
CCOc1ccc(NS(=O)(=O)c2ccc(OCC(=O)NCCCOC)cc2)cc1	-4	-2	7	21	2	0	2	i
CN(CCC#N)C(=O)COC(=O)/C=C/c1ccc2c(c1)OCO2	.	-2	-8	11	-2	1	2	i
Clc1ccc(-c2nnc(-c3ccccc3)o2)c(Cl)c1	25	3	-50	-388	-4	1	0	i
CC(C)n1c(-c2cccnc2)nc2cnccc21	-7	4	-11	18	2	-9	-9	i
Cc1cc(NC(=O)c2cncc(Br)c2)ccc1NC(=O)c1cc2ccccc2o1	-9	-4	-12	-48	-26	-5	-6	i
COC(=O)Nc1sccc1C(=O)Nc1sccc1C(=O)OC	-13	30	-8	-23	19	-11	1	i
COCCn1c(SCC(=O)c2c(N)n(C)c(=O)n(C)c2=O)nc2ccccc21	-11	61*	-25	4	3.0*	-1	2	i	eIF4H FP inh retest=85*;PABP FP inh retest=55*
Cc1cc(C)c(C(=O)CC(=O)c2ccccc2Cl)c(O)c1	.	-10	-25	0	-15	5	2	i
c1cncc(C2SCCCS2)c1	.	.	-3	-5	.	-1	0	.
O=C(OCC(=O)N1CCC(Cc2ccccc2)CC1)c1cncc(Br)c1	26	.	-7	.	.	0	0	.
C#CCOCCOCCOCCNc1nc(N2CCN(C(=O)[C@H](CCCCN)n3cc([C@@H](N)C(C)CC)nn3)CC2)nc(N2CCN(C(=O)[C@H](Cc3ccc(O)cc3)n3cc([C@@H](N)C(C)CC)nn3)CC2)n1 (stereo partly specified)	-7	34	31	.	32	-1	6	i
COc1cccc(S(=O)(=O)N2CCN(Cc3ccc4c(c3)OCO4)CC2)c1	-7	-10	-15	-3	10	3	2	i
COc1cc(NC2c3ncccc3C(=O)N2Cc2ccco2)cc(OC)c1OC (stereo unspecified)	-6	-14	.	-5	2	-4	5	i
O=C(NCCN1CCN(C(=O)c2cccc(OC(F)F)c2)CC1)c1cccc(OC(F)F)c1	-12	.	-4	-6	.	-5	-1	.
COC(=O)/C=C/CSC1=N/C(=C/c2ccc(-n3cncn3)cc2)C(=O)N1	-12	-1	-14	.	-16	-2	-3	i
CCOc1ccc(C(=O)NCC(=O)NCC(c2ccc(OC)cc2)N2CCOCC2)cc1OCC (stereo unspecified)	-14	.	.	-11	.	-1	1	i
CCC(Cc1ccccc1)NS(=O)(=O)c1csc(C(N)=O)c1 (stereo unspecified)	-8	5	-17	-11	2	-1	5	i
CC1C(=O)NN=C1C(=O)N/N=C/c1ccco1 (stereo unspecified)	4	-2	.	0	1	-1	6	i
CCOc1ccc(C(C)NC(=O)CN2C(=O)NC3(CCCCC3)C2=O)cc1OCC (stereo unspecified)	.	.	0	-6	.	-1	0	.
COc1ccc2nc(NC(=O)c3cc(C)oc3C)sc2c1	.	6	-13	-333	-2	-1	-7	.
COC(=O)c1ccc(C2C(Oc3ccccc3C)C(=O)N2CCc2ccc(OC)c(OC)c2)cc1 (stereo unspecified)	-13	2	.	.	-4	-4	-12	i
Cc1c(Cl)c([N+](=O)[O-])nn1CC(=O)NC(C)c1ccccc1 (stereo unspecified)	-10	-5	-8	13	-8	3	2	i
CCc1nnc(NC(=O)CSc2nc(-c3ccccc3)cc(-c3ccc(OC)cc3)c2C#N)s1	18	4	-7	0	-7	-12	1	i
CCN(c1ccccc1)S(=O)(=O)c1ccc(C(=O)Nc2nnc(C3CC3)o2)cc1	32	-8	.	11	-2	-1	-2	i

(cont.)
SMILES	CSC inhib	PABP FP inh	UUG fidelity	HIV Env fusion	eIF4H FP inh	MT1-MMP act inh	MT1-MMP act inh RFP	Rce1 inh	others
CC(CC(=O)O)CC(=O)Nc1nncs1 (stereo unspecified)	-10	5	-16	4	-1	1	4	i
CC1CCCN(C(=O)CCNS(=O)(=O)c2ccc3c(c2)c(=O)n(C)c(=O)n3C)C1 (stereo unspecified)	-2	8	-15	1	-12	4	2	i
CCOC(CNC(=O)c1ccc2c(c1)ncn2-c1cccc(F)c1)OCC	.	-6	-6	-10	0	4	4	i
COCCN1CCC(CNCc2c(C(=O)N3CCCCC3)nc3c(C)cccn23)C1 (stereo unspecified)	-9	28*	.	-3	62*	-10	-6	i	eIF4H FP inh retest=63*;PABP FP inh retest=58*
O=C(COC(=O)COc1ccccc1[N+](=O)[O-])Nc1ccc(S(=O)(=O)N2CCCCC2)cc1	-1	-6	-12	-42	0	3	10	i
Cc1cc(=O)oc2cc(OC(=O)c3ccccc3)ccc12	-10	9	-7	.	2	-2	4	i
CCOc1cccc(N2C(=O)CC(NNC(=O)c3ccc(Br)o3)C2=O)c1 (stereo unspecified)	-4	0	.	2	-1	1	9	i
O=C1/C(=C/c2cccnc2)SC(=S)N1C1CCS(=O)(=O)C1 (stereo unspecified)	.	-2	.	.	2	5	0	i
CCC(=O)Nc1ccc(-c2nnc(SCC(=O)NCC3CCCO3)n2C)cc1 (stereo unspecified)	8	0	.	7	7	-3	2	i
CC[C@H]1C(O)C[C@H]2CCN3C(=O)CCC[C@H]1[C@H]23 (stereo partly specified)	.	.	-9	12	.	2	6	.
CCCC(=O)NC(Nc1c(C)n(C)n(-c2ccccc2)c1=O)C(Cl)(Cl)Cl (stereo unspecified)	2	0	7	-1	0	0	1	i
COc1c(C(=O)Nc2ccccc2N2CCOCC2)cc2ccccc2c1Br	18	-2	-6	-20	-10	-6	-11	i
CC(C)(CO)NC(=O)CCCOc1ccc(Cl)cc1Cl	-2	-9	-8	.	-4	3	3	i
O=C(OCc1cn(-c2ccc(Cl)c(Cl)c2)nn1)c1ccccc1	12	3	-14	33	12	1	4	i
O=c1[nH]c(=O)n(C2OC(CO)C(O)C2O)cc1Br (stereo unspecified)	-5	-1	-5	-13	-3	2	0	i
CN(C(=O)c1ccc(Oc2ccc([N+](=O)[O-])cc2)cc1)C1CCCCC1	2	6	14	59*	-4	3	-21	i
COc1cccc2cc(C(=O)C3=C(O)C(=O)N(CCN(C)C)C3c3ccc(F)cc3)oc12 (stereo unspecified)	-1	2	-9	48	-10	4	6	i
COc1ccccc1CNC(=O)c1ccc2c(=O)n3c(nc2c1)CCCCC3	.	1	21	-2	-3	1	-1	i
O=c1[nH]c2ccc(S(=O)(=O)N3CCN(c4ccccc4)CC3)cc2[nH]c1=O	8	-5	-3	.	5	6	4	i
Cc1c(Cl)cccc1-n1c(SCC(=O)NCc2ccccc2Cl)nnc1-c1ccncc1	.	-4	-7	.	3	5	1	i
CC(=O)C1C(c2ccccc2Cl)NC(=O)NC1(O)C(F)(F)F (stereo unspecified)	-3	0	-1	-16	-7	4	9	i
Cc1ccc(C(=O)N/C(=C/c2ccccc2)C(=O)NC(Cc2ccccc2)C(=O)O)cc1 (stereo unspecified)	11	1	.	-14	3	1	10	i
CC(=C1SC(=S)NC1=O)c1ccccc1	.	.	-37	-11	.	-3	1	.
